Compound activity deposited in PubChem by Broad Institute.
Beta cell apopt: beta cell apoptosis inhibition. protection from apoptosis, % (test concentration not listed). AID 435005. 300,000 tested, 0.8% active. INS-1E cytokine-induced death, ATP luminescence, 48 h; percent of positive-control rescue, neutral wells zero;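 active means all replicates at 75% or more, or half of them and the mean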;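 further: 0% = cytokine-treated negative control wells and 100% = positive control rescue; higher means more ATP so stronger rescue from cytokine killing; wells of about 40 µL received 100 nL stock; the first replicate is given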
Calb FLC: C. albicans growth modulation with fluconazole | C. albicans CaCi-2 (fluconazole-resistant clinical isolate) + fluconazole, Alamar Blue growth, 48 h | growth inhibition, % (no concentration beside the values) | 300,000 tested, 0.57% active;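 active means most replicates above 75%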;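 further: all wells also contain fluconazole at 8 µg/ml as a sub-toxic cotreatment; 0% = median of DMSO wells and 100% = median of geldanamycin control wells; wells of about 8 µL received 7.5 nL stock; the first replicate is given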
A1 inh: inhibitors of the anti-apoptotic protein A1, read as caspase activation; 330,000 tested, 0.066% active; MEF A1-2A-BIM cells, Caspase-Glo 3/7 luminescence, 3 h; percent of clofoctol response, vehicle zero; caspase activation, % (concentration not given with the values); AID 2462;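 active means over half of replicate activation scores above 10%, or exactly half above 10 with the replicate mean above 10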;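 further: wells of about 30 µL received 50 nL stock; many hits fall short of the cut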
MLL AF4-AF9 inh: inhibitors of human MLL-AF4/AF9 interaction | AID 651704 | AlphaScreen, biotin-AF4 peptide binding to FLAG-AF9 | P42568 | 350,000 tested, 0.47% active | inhibition, % at 10 µM;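 active means every replicate reaching a set inhibition limit, whatever the replicate mean, cut at about 25% in these data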;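 further: 0% = plate neutral control median and 100% = total signal loss; the record names both 10 and 1 µM as test concentration; the first replicate is given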
Target sequence (P42568 whole entry, looked up): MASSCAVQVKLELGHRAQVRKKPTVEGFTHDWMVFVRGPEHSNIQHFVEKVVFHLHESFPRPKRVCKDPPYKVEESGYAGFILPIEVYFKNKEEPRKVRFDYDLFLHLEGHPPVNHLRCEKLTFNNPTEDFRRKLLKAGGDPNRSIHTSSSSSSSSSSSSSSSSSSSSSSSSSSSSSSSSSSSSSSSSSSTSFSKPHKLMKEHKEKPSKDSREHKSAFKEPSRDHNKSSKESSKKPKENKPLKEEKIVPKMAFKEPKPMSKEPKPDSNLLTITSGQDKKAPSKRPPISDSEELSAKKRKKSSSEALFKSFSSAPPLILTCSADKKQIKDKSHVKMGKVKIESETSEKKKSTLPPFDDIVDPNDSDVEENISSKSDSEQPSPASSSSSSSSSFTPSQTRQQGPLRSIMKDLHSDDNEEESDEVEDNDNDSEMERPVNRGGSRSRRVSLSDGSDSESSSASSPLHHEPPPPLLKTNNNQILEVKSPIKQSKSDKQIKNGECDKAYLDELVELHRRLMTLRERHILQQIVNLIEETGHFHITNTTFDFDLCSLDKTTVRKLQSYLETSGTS
An asterisk follows results filed as active; x = not tested or not shown.

SMILES	Beta cell apopt	Calb FLC	A1 inh	MLL AF4-AF9 inh
C#CCOCCOCCOCCNc1nc(N2CCN(C(=O)CCCCCCCCCCNC(=O)[C@H](CCCCN)n3cc(CCO)nn3)CC2)nc(N2CCN(C(=O)CCCCCCCCCCNC(=O)[C@H](CCCCN)n3cc(C[C@@H](C)CC)nn3)CC2)n1	83*	x	2.0	x
Cc1cccc(-n2c(Cc3cc(=O)[nH]c(=O)[nH]3)nnc2SCC(=O)NCc2ccco2)c1	-11	x	-0.2	x
O=C(NCCCN1CCOCC1)c1c(O)c2cc(Br)cc(Br)c2[nH]c1=O	-6	x	0.2	x
COc1ccc(/C=C\C(=O)O[C@@H]2C(O)C(O[C@@H]3OC(C)[C@H](O[C@@H]4OCC(O[C@H]5O[C@H](CO)[C@@H](O)C(O)C5O)C(O)C4O)C(O)C3O)[C@H](OC(=O)[C@]34CCC(C)(C)C[C@@H]3C3=CCC5[C@@]6(C)CC(O)C(O[C@@H]7OC(CO)C(O)[C@H](O)[C@H]7O)[C@@](C)(C(=O)O)C6CC[C@@]5(C)[C@]3(CO)CC4)O[C@H]2C)cc1 (some centres not stated)	37	x	1.4	x
C[C@]12CCC[C@H](O1)[C@H]([C@@H](O)c1ccccc1)O2	-10	x	0.5	x
CC(=O)OC[C@]12CC[C@H]3[C@@](C)(CC[C@H]4C(C)(C)CCC[C@]34C)[C@@H]1C[C@H](C1=CC(=O)O[C@H]1OC(C)=O)O2	10	x	62*	x
Cc1ccc(S(=O)(=O)NN2C(=O)/C(=C/c3cccn3C)SC2=S)cc1	-1	x	1.7	x
COC(=O)C1=C(C)N(Cc2ccccc2)C(=NCc2cc(OC)c(OC)c(OC)c2)N[C@H]1c1ccc(Br)cc1	-3	x	-0.3	x
C[C@H](CO)N1C[C@H](C)[C@@H](CN(C)Cc2ccncc2)Oc2c(NC(=O)CCC(F)(F)F)cccc2C1=O	6	x	0.0	x
C#CCOCCOCCOCCNc1nc(N2CCN(C(=O)[C@H]([C@@H](C)CC)n3cc([C@@H](N)Cc4ccc(O)cc4)nn3)CC2)nc(N2CCN(C(=O)[C@H](Cc3cc4ccccc4[nH]3)n3cc([C@@H](N)CC(C)C)nn3)CC2)n1	-2	x	-0.1	x
O=C(NCc1cc(C(F)(F)F)ccc1Cl)c1cccc2c1C(=O)c1ccc(-c3ccc(OC(F)(F)F)cc3)cc1S2(=O)=O	4	x	0.3	x
COc1cccc(-c2c(-c3cc(OC)cc(OC)c3)n(C)c3ccc(-c4cnc(OC)nc4)cc23)c1	-1	x	-1.4	x
Oc1ccc(/C=N/N=C(c2ccccc2)c2ccccc2)c(O)c1O	-8	x	-0.1	x
CC(C)n1cnc2c(NCc3ccccc3)cc(N[C@H](C)CO)cc21	114*	x	-0.5	x
Cc1c(C)c2cccnc2c2ncccc12	100*	x	-0.3	x
COC(=O)c1c(-c2ccc(OC)cc2)sc2ccccc12	1	x	-0.1	x
COc1ccc(-c2ccc3oc(-c4ccsc4)c(-c4ccc(Br)nc4)c3c2)cc1	-2	x	-0.1	x
O=C(O)c1cccc2c1C(=O)c1ccc(-c3ccc(Cl)c(C(F)(F)F)c3)cc1S2(=O)=O	-1	x	-0.1	x
CC(C)(C)OC(=O)NCc1ccc(NC(=O)c2nc[nH]c2C(=O)NCCCCNC(=O)c2[nH]cnc2C(=O)Nc2ccc(CNC(=O)OC(C)(C)C)cc2)cc1	71	x	0.5	x
Cc1cccc2sc(N(CCCN(C)C)C(=O)c3sc4ccccc4c3Cl)nc12	-10	x	-0.2	x
c1ccc(-[n+]2nc(Nc3cccc4ccccc34)sc2-c2c3ccccc3cc3ccccc23)cc1	117*	x	0.4	x
CCc1ccc(S(=O)(=O)/N=C2/C=C(Sc3ncn[nH]3)C(=O)c3ccccc32)cc1	127*	x	1.1	x
O=C(O)c1cccc(Oc2ccc([N+](=O)[O-])cc2)c1	-2	x	-0.5	x
COc1cc(CCN2C(=O)N[C@@H](CCc3ccccc3)C(C(C)=O)=C2C)cc(OC)c1OC	1	x	1.6	x
COc1ccc2c(c1)OC[C@H]1[C@H]2N2C(=O)c3cc(C)ccc3NC(=O)[C@@]2(C)[C@H]1c1ccccc1	1	x	0.9	x
S=C(NCCc1cccc(Cl)c1)NCc1ccccc1	-2	-38	-2.7	x
O=C(COc1c(Br)cc(Br)cc1Br)N/N=C/c1ccco1	-10	-25	-0.2	x
O=C1N(CCS(=O)(=O)c2ccccc2)Cc2ccccc2[C@@H]2OC(c3ccc(OCCCO)cc3)=N[C@]12CCS(=O)(=O)c1ccccc1	x	x	x	-1.9
C[C@@H]1CN([C@@H](C)CO)C(=O)c2cccc(NC(=O)c3ccncc3)c2O[C@H]1CN(C)Cc1ccc(Cl)c(Cl)c1	x	x	x	2.8
CCO[C@@H]1OC(C(=O)N2CCN(Cc3ccc4c(c3)OCO4)CC2)=C[C@H](C(C)(C)C)[C@H]1CCCO	x	x	x	-2.7

Complete entries from above. Screens in order: Beta cell apopt, Calb FLC, A1 inh, MLL AF4-AF9 inh
O=C1N(CCS(=O)(=O)c2ccccc2)Cc2ccccc2[C@@H]2OC(c3ccc(OCCCO)cc3)=N[C@]12CCS(=O)(=O)c1ccccc1 as listed: x, x, x, -1.9
COc1cc(CCN2C(=O)N[C@@H](CCc3ccccc3)C(C(C)=O)=C2C)cc(OC)c1OC as listed: 1, x, 1.6, x

Further structures follow.
SMILES	Beta cell apopt	Calb FLC	A1 inh	MLL AF4-AF9 inh
CCC1(O)C(=O)OCc2c1cc1n(c2=O)Cc2cc3cc(O)ccc3nc2-1 (configuration not stated)	x	x	x	1.9
CCCNC(=O)C1(C)CCN(Cc2cc3ccccc3o2)C1 (configuration not stated)	x	x	x	0.0
CC(=O)Nc1cncc(-c2ccccc2N(C)C)n1	x	x	x	-4.1
COCCCNC(=O)[C@@]1(Cc2ccccc2)COC(c2ccc(OCCCO)cc2)=N1	x	x	x	1.0
COc1ccc(COCC23N=C4SCc5ccccc5C(=O)N4[C@H](c4ccccc4O2)[C@H]3CO[Si](C)(C)C(C)(C)C)cc1	x	x	x	-4.4
O=C(NC[C@@H]1CC[C@H]2[C@H](CN2Cc2cccc(Cl)c2)O1)C1CCC1	x	x	x	-3.0
C=CCN1Cc2ccccc2[C@H]2OC(c3ccc(OCCCO)cc3)=N[C@@]2(CC=C)C1=O	x	x	x	3.7
COc1ccc(COCC23N=C4SCc5ccccc5C(=O)N4[C@H](c4ccccc4O2)[C@H]3COC(=O)c2ccccc2)cc1	x	x	x	-1.0
O=C(NC1CCCCC1)C1c2ccccc2OCC(=O)N1Cc1ccccc1 (configuration not stated)	x	x	x	-4.4
CN(C)C(=O)c1cccc(-c2ccc([C@@H]3[C@H](CO)N4CCCCN(C(=O)C5CCCC5)C[C@@H]34)cc2)c1	x	x	x	-4.2
CCCCN1C(=O)C(CC(=O)NCC2CCCCC2)CC(C(=O)N2CCCCCC2)=C1C (configuration not stated)	x	x	x	0.1
COc1ccc(NC(=O)Nc2ccc3c(c2)C(=O)N([C@H](C)CO)C[C@H](C)[C@H](CN(C)C)O3)cc1	x	x	x	-1.2
OC(c1ccc(F)cc1)c1nc(-c2ccc(Cl)cc2)cs1 (configuration not stated)	x	x	x	-6.4
NC(=O)NCC#Cc1ccc2c(c1)[C@]1(C(=O)N2)[C@H](c2ccc(O)cc2)N2[C@H](c3ccccc3)[C@H](c3ccccc3)OC(=O)[C@H]2[C@@H]1C(N)=O	x	x	x	2.7
O=C(NCCNCc1ccccc1)c1ccco1	x	x	x	2.1
CCOC(=O)C1CCCN(C(=O)c2ccc(OC)cc2OC)CC1 (configuration not stated)	x	x	x	-3.3
C#CCN1C(C)=CC(=O)[C@@H](O)[C@H]1c1ccccc1Br	x	x	x	-3.6
N#C/C(=C\c1ccc(O)c(O)c1)C(=O)NCc1ccccc1	x	x	x	2.9
OC(CSc1nc2ccccc2s1)CC(O)c1ccccc1 (configuration not stated)	x	x	x	-3.9
COc1ccc(NC(=O)C2c3ccccc3OCC(=O)N2Cc2cccnc2)cc1 (configuration not stated)	x	x	x	3.6
O=C(Nc1ccc(C(F)(F)F)cc1)N[C@H]1CC[C@@H](CC(=O)N2CCCCC2)O[C@@H]1CO	x	x	x	-2.1
C=CC[C@@]1(C(=O)N2CCOCC2)N=C(c2ccc(OCCCO)cc2)O[C@@H]1c1ccccc1	x	x	x	0.0
O=C(NC[C@H]1CC[C@H]2[C@H](CN2Cc2ccc(Oc3ccccc3)cc2)O1)C1CCOCC1	x	x	x	-3.8
C[C@@H]1C=C(C(=O)N2CCCCCCC2)O[C@H](OCc2ccc(CO)cc2)C1	x	x	x	-3.7
CCCN(C)C[C@@H]1Oc2ncc(-c3cccc(C(=O)N(C)C)c3)cc2C(=O)N([C@@H](C)CO)C[C@@H]1C	x	x	x	-2.6
Cc1ccc(S(=O)(=O)N(C)C[C@H]2Oc3cc(C#Cc4ccncc4)ccc3S(=O)(=O)N([C@@H](C)CO)C[C@H]2C)cc1	x	x	x	1.0
COc1ccc(-c2cc(=O)c3ccc(O)cc3o2)cc1OC	x	x	x	5.0
COc1cc2c(cc1OC)CN(C(=O)[C@H]1[C@@H]3C(=O)O[C@@H](c4ccccc4)[C@@H](c4ccccc4)N3[C@@H](c3ccc(O)cc3)[C@]13C(=O)Nc1ccc(C#CC4(O)CCCCCC4)cc13)CC2	x	x	x	-2.5
CC1CN(C(NC(=O)c2ccccc2)C(Cl)(Cl)Cl)CC(C)O1 (configuration not stated)	x	x	x	-0.1
O=C(C1CC1)N1CCCCN2[C@H](CO)[C@@H](c3ccc(C#CC4(O)CCCC4)cc3)[C@H]2C1	x	x	x	0.4
OC1C2COC(O2)C2OC(c3ccccc3)OC12 (configuration not stated)	x	x	x	0.2
N#Cc1ccc(-c2nc3ccc(Br)cn3c2Cc2cccc(F)c2)cc1	x	x	x	-0.6
CCc1nc2ccc(C(=O)NCc3cccs3)cn2c1N(CCC(C)C)CCN(C)C	x	x	x	4.7
O=C1NC(Cc2cnc[nH]2)C(=O)N2CCCC12 (configuration not stated)	x	x	x	-0.8
CCCS(=O)(=O)NC(=O)C1(C)CCCN(C(=O)c2ccc(OC)cc2)C1 (configuration not stated)	x	x	x	2.8
O=C(NC[C@H]1CC[C@H]2[C@H](CN2S(=O)(=O)c2ccccc2)O1)NC1CCCCC1	x	x	x	-3.0
COc1ccc(S(=O)(=O)NC[C@@H]2CC[C@@H]3[C@@H](CN3Cc3cc(F)ccc3F)O2)cc1	x	x	x	18
COC(=O)[C@@]1(Cc2ccccc2N=[N+]=[N-])N=C(c2ccc(OCCCO)cc2)O[C@H]1c1ccccc1CN=[N+]=[N-]	x	x	x	8.7
NC(=O)NCC#Cc1ccc2c(c1)[C@]1(C(=O)N2)[C@H](c2ccc(OCCO)cc2)N2[C@H](c3ccccc3)[C@H](c3ccccc3)OC(=O)[C@H]2[C@@H]1C(=O)O	x	x	x	0.7
COc1ccc(CN2CCC(C)=CC2C)cc1 (configuration not stated)	x	x	x	10
Cc1cccc(C)c1NC(=O)C1c2ccccc2OCC(=O)N1CCc1c[nH]c2ccccc12 (configuration not stated)	x	x	x	4.8

Molecules above with a Cl atom:
SMILES	Beta cell apopt	Calb FLC	A1 inh	MLL AF4-AF9 inh
O=C(NCc1cc(C(F)(F)F)ccc1Cl)c1cccc2c1C(=O)c1ccc(-c3ccc(OC(F)(F)F)cc3)cc1S2(=O)=O	4	x	0.3	x
O=C(O)c1cccc2c1C(=O)c1ccc(-c3ccc(Cl)c(C(F)(F)F)c3)cc1S2(=O)=O	-1	x	-0.1	x
Cc1cccc2sc(N(CCCN(C)C)C(=O)c3sc4ccccc4c3Cl)nc12	-10	x	-0.2	x
S=C(NCCc1cccc(Cl)c1)NCc1ccccc1	-2	-38	-2.7	x
C[C@@H]1CN([C@@H](C)CO)C(=O)c2cccc(NC(=O)c3ccncc3)c2O[C@H]1CN(C)Cc1ccc(Cl)c(Cl)c1	x	x	x	2.8
O=C(NC[C@@H]1CC[C@H]2[C@H](CN2Cc2cccc(Cl)c2)O1)C1CCC1	x	x	x	-3.0
OC(c1ccc(F)cc1)c1nc(-c2ccc(Cl)cc2)cs1 (configuration not stated)	x	x	x	-6.4
CC1CN(C(NC(=O)c2ccccc2)C(Cl)(Cl)Cl)CC(C)O1 (configuration not stated)	x	x	x	-0.1

This is a subset; the hit share may differ from the screen's.
